rRNA inh HTS: reduced GFP signal of wild-type E. coli, primary screen, bacterial rRNA inhibitor project, GFP/RFP fluorescence, OD600, single point. E. coli WT GFP vs humanized-ribosome RFP mutants, 24 h; active compounds read low; DMSO median 0, no signal -100. GFP signal change (wild-type ribosome), % (concentration not given with the values). 350,000 compounds, 1.6% hits;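 active = significant combined selectivity score with lowered wild-type GFP, culture density cut under 30%, mutant RFP and density less affected; inactive = any of these conditions unmet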; note: one replicate is shown; some compounds called inactive have numbers as strong as hits
rRNA inh HTS OD600: further read-out of rRNA inh HTS, marked with its call; OD600 change, %; measured here: OD600 growth;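 optical density of the mix in the first replicate; 0 = DMSO median and -100 = no signal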
rRNA inh HTS RFP: recorded beside rRNA inh HTS, whose call it bears; RFP signal change, %; measured here: RFP humanized mutant strains;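 first replicate; 0 = DMSO median and -100 = no signal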
Numbers without * were called inactive. This is a subset (hit frequency here may not be typical).

no.	SMILES	rRNA inh HTS	rRNA inh HTS OD600	rRNA inh HTS RFP
1	COc1ccc(S(=O)(=O)Nc2ccc3c(c2)CC(=O)N([C@@H](C)CO)C[C@@H](C)[C@H](CN(C)S(=O)(=O)c2ccc(F)cc2)O3)cc1	-5	-5	-0.3
2	CC(=O)Nc1ccc2c(c1)C(=O)N(C)C[C@@H](C)[C@@H](CN(C)C(=O)OC(C)(C)C)O2	1	-3	0.0
3	C[C@@H]1C/C=C/C[C@H](c2ccc3c(c2)OCO3)NC(=O)[C@@H](C)N(C)C(=O)c2ccccc2O1	3	-28	25
4	CCNC(=O)Nc1ccc2c(c1)C(=O)N(C)[C@H]1CC[C@@H](CC(=O)NCC3CC3)O[C@H]1CO2	0	-2	-2.7
5	Cc1noc(C)c1NC(=O)Nc1ccc2c(c1)C(=O)N([C@H](C)CO)C[C@H](C)[C@@H](CN(C)C(=O)Nc1cccc3ccccc13)OCCCC[C@H](C)O2	0	4	-0.3
6	CN1C(=O)[C@@](O)(c2cn(C)c3ccccc23)c2ccccc21	4	7	1.7
7	COc1ccc(S(=O)(=O)Nc2ccc3c(c2)CC(=O)N([C@@H](C)CO)C[C@@H](C)[C@@H](CN(C)C(=O)Nc2ccc(F)cc2)O3)cc1	2	1	2.1
8	Cc1ccc(S(=O)(=O)N(C)C[C@@H]2OCCCC[C@H](C)Oc3ccc(N(C)C)cc3C(=O)N([C@H](C)CO)C[C@@H]2C)cc1	-5	-6	-1.6
9	CCCN(C)C[C@H]1Oc2cc(C3=CCCC3)ccc2S(=O)(=O)N([C@@H](C)CO)C[C@H]1C	4	-1	0.5
10	C[C@@H]1CN([C@@H](C)CO)S(=O)(=O)c2ccc(-c3cccnc3)cc2O[C@@H]1CN(C)C(=O)c1ccc2c(c1)OCO2	-2	-1	-2.4
11	C[C@@H]1CN([C@H](C)CO)C(=O)c2cc(N(C)C)ccc2O[C@@H](C)CCCCO[C@H]1CN(C)Cc1ccncc1	2	10	-2.6
12	COc1ccc2c3c(n(C)c2c1)[C@H](CO)N(C(=O)CN1CCOCC1)CC31CCN(C(=O)CC2CC2)CC1	-3	3	-2.8
13	CCCNC(=O)N1CC2(CN(C(C)=O)C2)c2c(n(C)c3cc(OC)ccc23)[C@H]1CO	2	4	-4.7
14	CO[C@H]1CN(C)C(=O)c2ccc(NC(=O)C3CCC3)cc2OC[C@H](C)N(C(=O)CN(C)C)C[C@H]1C	1	2	-3.0
15	O=C(C[C@@H]1C[C@@H]2c3cc(NC(=O)NC4CCCCC4)ccc3O[C@@H]2[C@H](CO)O1)NC1CCCC1	0	-3	-3.8
16	C[C@H]1CN(C(=O)OC(C)(C)C)CCN1c1ccc(N2CC[C@H](O)C2)c(C#N)c1	-24	-14	1.8
17	CC(C)[C@H](NC(=O)[C@@H](N)Cc1ccccc1)C(=O)N1CCC2CCN(Cc3ccccc3)CC21 (some centres not stated)	10	3	1.5
18	O=C(c1ccncc1)N1C[C@@H]2[C@H](c3ccccc31)[C@@H](CO)N2C(=O)c1ccccn1	-1	0	-4.6
19	COC(=O)C[C@@H]1CC[C@@H]2[C@H](COC[C@H](O)CN2S(=O)(=O)c2cn(C)cn2)O1	-2	-5	-5.8
20	COc1cccc(NC(=O)N2C[C@H](O)COC[C@@H]3O[C@@H](CC(=O)NCCCN4CCOCC4)CC[C@H]32)c1	-3	-1	-2.3
21	C[C@@H]1CN([C@@H](C)CO)C(=O)c2cc(NC(=O)C3CCCCC3)ccc2O[C@@H](C)CCCCO[C@H]1CN(C)Cc1ccc(C(F)(F)F)cc1	0	8	3.0
22	C[C@@H]1OC(C2CCCCC2)N(C)[C@H]2C[C@H]3c4[nH]c5cccc(-c6ccccc6)c5c4CCN3C(=O)[C@@H]12 (some centres not stated)	-21	-23	1.9
23	CCCC(=O)Nc1ccc2c(c1)C(=O)N(C)C[C@@H](OC)[C@@H](C)CN(Cc1ccncc1)[C@H](C)CO2	0	2	1.7
24	COc1ccc2c3c([nH]c2c1)[C@@H](CO)N(C(=O)CN1CCOCC1)CC31CN(C)C1	7	2	-2.1
25	C[C@H]1CCCCO[C@H](CN(C)Cc2ccc3c(c2)OCO3)[C@@H](C)CN([C@@H](C)CO)C(=O)c2cc(NS(=O)(=O)c3cccs3)ccc2O1	1	4	1.1
26	C[C@@H]1CN([C@@H](C)CO)C(=O)c2cc(NC(=O)Cc3ccccc3)ccc2O[C@@H]1CN(C)Cc1ccc(-c2ccccc2)cc1	2	-10	13
27	CCCNC(=O)Nc1ccc2c(c1)C(=O)N(C)C[C@H](OC)[C@@H](C)CN(Cc1ccccn1)[C@H](C)CO2	1	2	-1.7
28	CCC(=O)Nc1ccc2c(c1)OC[C@H](C)N(C(=O)CC)C[C@@H](C)[C@H](OC)CN(C)C2=O	4	4	1.2
29	COc1ccc(S(=O)(=O)N2CCCCN3[C@H](CO)[C@@H](c4ccc(C#CCC(C)C)cc4)[C@H]3C2)cc1	-29	-28	14
30	O=C(c1cccc(F)c1)N1CC[C@@H]2[C@@H](CO)Nc3ccc(-c4ccccc4F)cc3[C@@H]21	-50	-73	-16
31	C[C@H](CO)N1C[C@H](C)[C@H](CN(C)C(=O)c2ccncc2)OCCCC[C@H](C)Oc2ccc(NC(=O)NC3CCCCC3)cc2C1=O	0	1	-0.6
32	CN1c2ccc(-c3ccc(C#N)cc3)cc2[C@@H]2[C@@H](CCN2C(=O)Cc2ccccn2)[C@@H]1CO	-3	5	5.0
33	C[C@H](NC(=O)C[C@H]1CC[C@H]2[C@@H](COC[C@@H](O)CN2C(=O)Nc2cccc(Cl)c2)O1)c1ccccc1	-55	-74	-19
34	C[C@H](CO)N1C[C@H](C)[C@@H](CN(C)C(=O)Nc2ccc3c(c2)OCO3)Oc2c(NC(=O)Cc3cn(C)c4ccccc34)cccc2C1=O	-7	-1	4.1
35	CCCC(=O)Nc1ccc2c(c1)C(=O)N(C)C[C@H](OC)[C@@H](C)CN(C(=O)CC)[C@@H](C)CO2	1	4	0.6
36	CN(C[C@H]1N[C@@H](CO)[C@H]1c1ccc(C2=CCCCC2)cc1)S(C)(=O)=O	3	3	1.4
37	O=S(=O)(Cc1ccccc1)N1CCCCN2[C@@H](CO)[C@H](c3ccc(-c4ccc(F)cc4)cc3)[C@@H]2C1	-20	-38	0.6
38	CC(=O)N(C)C[C@H]1Oc2cc(C3=CCCCC3)ccc2S(=O)(=O)N([C@H](C)CO)C[C@H]1C	-2	-13	1.9
39	CCC(=O)N(C)C[C@H]1[C@@H](c2ccc(C3=CCCCC3)cc2)[C@@H](CO)N1C(=O)CC	1	5	-2.0
40	O=C(NC[C@H]1[C@H](c2ccccc2)[C@H](CO)N1CC1CCCC1)c1cccnc1	-1	-5	-1.9
41	C[C@H]1CN([C@@H](C)CO)C(=O)Cc2cc(NC(=O)CCCN(C)C)ccc2O[C@@H]1CN(C)S(=O)(=O)c1cccs1	0	1	-2.2
42	CC(=O)NC[C@H]1[C@@H](c2ccc(-c3cccnc3)cc2)[C@H](CO)N1C(=O)C1CCC1	0	6	-0.5
43	COC(=O)C1=C(C)N(C)C(=NCc2ccc(C(F)(F)F)cc2)NC1c1ccc(C(F)(F)F)cc1 (configuration not stated)	-43	-80	-17
44	C[C@@H]1CN([C@H](C)CO)C(=O)c2cc(NC(=O)CCCN(C)C)ccc2O[C@@H](C)CCCCO[C@H]1CN(C)CC1CCCCC1	4	5	-0.3
45	COc1cccc(S(=O)(=O)Nc2ccc3c(c2)C(=O)N(C)[C@H]2CC[C@H](CC(=O)O)O[C@H]2CO3)c1	2	4	-3.8
46	CCC(=O)N1CC(=O)N2[C@H](CO)[C@@H](c3ccc(C#CC4CCCCC4)cc3)[C@@H]2C1	5	-5	9.5
47	C[C@@H]1CN([C@@H](C)CO)C(=O)c2cc(NS(=O)(=O)c3cn(C)cn3)ccc2O[C@@H]1CN(C)S(=O)(=O)c1cn(C)cn1	3	-1	-1.5
48	CCCNC(=O)N1[C@H](CO)[C@@H]2c3ccccc3N(C(=O)c3ccccc3)C[C@@H]21	-6	-7	2.5
49	O=C(Nc1ccccc1F)N1C[C@H]2[C@@H](c3ccccc31)[C@@H](CO)N2C(=O)Cc1cccnc1	1	11	-1.9
50	COc1cccc(S(=O)(=O)N2CC[C@@H]3[C@H]2c2cc(-c4ccc(C#N)cc4)ccc2N[C@@H]3CO)c1	-5	-2	-0.9

Four entries from above, with each value named:
28. CCC(=O)Nc1ccc2c(c1)OC[C@H](C)N(C(=O)CC)C[C@@H](C)[C@H](OC)CN(C)C2=O
  rRNA inh HTS: 4
  rRNA inh HTS OD600: 4
  rRNA inh HTS RFP: 1.2

29. COc1ccc(S(=O)(=O)N2CCCCN3[C@H](CO)[C@@H](c4ccc(C#CCC(C)C)cc4)[C@H]3C2)cc1
  rRNA inh HTS: -29
  rRNA inh HTS OD600: -28
  rRNA inh HTS RFP: 14

30. O=C(c1cccc(F)c1)N1CC[C@@H]2[C@@H](CO)Nc3ccc(-c4ccccc4F)cc3[C@@H]21
  rRNA inh HTS: -50
  rRNA inh HTS OD600: -73
  rRNA inh HTS RFP: -16

31. C[C@H](CO)N1C[C@H](C)[C@H](CN(C)C(=O)c2ccncc2)OCCCC[C@H](C)Oc2ccc(NC(=O)NC3CCCCC3)cc2C1=O
  rRNA inh HTS: 0
  rRNA inh HTS OD600: 1
  rRNA inh HTS RFP: -0.6

Down the list, quoted from above:
Compounds 30–35 in rRNA inh HTS RFP read -16, -0.6, 5.0, -19, 4.1, 0.6

(continued)
no.	SMILES	rRNA inh HTS	rRNA inh HTS OD600	rRNA inh HTS RFP
51	CO[C@H]1CN(C)C(=O)c2ccc(NC(=O)c3ccccc3)cc2OC[C@H](C)N(C(=O)CN(C)C)C[C@@H]1C	2	-2	1.2
52	C[C@@H]1CN([C@@H](C)CO)C(=O)c2cc(N(C)C)ccc2O[C@@H](C)CCCCO[C@H]1CN(C)S(=O)(=O)c1ccccc1	0	1	-1.6
53	Cc1cc(N2CCN(CC(C)(C)O)C[C@@H]2C)ccc1N1CCN(CC(C)(C)O)[C@@H](C)C1	7	3	-0.9
54	C[C@H]1CN([C@@H](C)CO)S(=O)(=O)c2ccc(C#CC3CCCC3)cc2O[C@H]1CN(C)C(=O)c1cccc(F)c1	1	-9	-0.4
55	COCC(=O)Nc1ccc2c(c1)[C@H]1C[C@H](CC(=O)OC)O[C@H](CO)[C@H]1O2	2	9	-0.5
56	C[C@H]1CN([C@@H](C)CO)C(=O)Cc2cc(NC(=O)Cn3cnnn3)ccc2O[C@@H]1CN(C)C(=O)Nc1ccc(F)cc1	5	8	0.2
57	C[C@H](CO)N1C[C@H](C)[C@H](CN(C)Cc2ccccc2F)Oc2cc(C#CC3CC3)ccc2S1(=O)=O	-11	-11	2.8
58	O=C(c1cccnc1)N1CCCCN2[C@H](CO)[C@H](c3ccc(C#Cc4cccnc4)cc3)[C@@H]2C1	-5	-5	-0.5
59	C[C@H]1CCCCO[C@@H](CN(C)S(=O)(=O)c2ccc(F)cc2)[C@@H](C)CN([C@@H](C)CO)C(=O)c2cc(NS(=O)(=O)c3ccc(F)cc3)ccc2O1	2	4	3.6
60	O=C(CN1CCOCC1)N1CCCCN2[C@H](CO)[C@@H](c3ccc(Br)cc3)[C@H]2C1	-3	12	-5.0
61	CCCNC(=O)C[C@H]1C[C@H]2c3cc(NC(=O)c4cccnc4)ccc3O[C@H]2[C@@H](CO)O1	3	6	0.7
62	CNC(=O)C[C@H]1CC[C@@H]2[C@H](COc3ccc(NC(=O)c4ccccc4F)cc3C(=O)N2C)O1	5	11	0.0
63	CC(C)c1[nH]nc2c1C(c1ccc(F)cc1)NC2=O (configuration not stated)	30	32	3.7
64	COCC(=O)Nc1ccc2c(c1)C(=O)N(C)[C@H]1CC[C@H](CC(=O)Nc3cn(C)nc3C)O[C@@H]1CO2	1	4	-3.1
65	C[C@H](CO)N1C[C@H](C)[C@H](CN(C)C(=O)Nc2ccc(C(F)(F)F)cc2)OCc2cn(nn2)CCCC1=O	-7	-1	1.8
66	COC(=O)C1(C(=O)OC)c2ccccc2N(S(=O)(=O)c2ccc(C)cc2)C1CC(=O)c1ccccc1 (configuration not stated)	-1	8	-1.2
67	CCCC(=O)Nc1ccc2c(c1)C(=O)N(C)C[C@H](OC)[C@H](C)CN(Cc1ccc(F)cc1)[C@H](C)CO2	0	1	-0.3
68	Cc1ccc(-c2cnc3c(c2)C(=O)N([C@@H](C)CO)C[C@H](C)[C@H](CN(C)C(=O)CN(C)C)O3)cc1	1	7	-3.0
69	C[C@H](CO)N1C[C@H](C)[C@@H](CN(C)CC2CC2)OCCCC[C@H](C)Oc2ccc(NC(=O)Nc3cccc4ccccc34)cc2C1=O	3	5	0.1
70	CS(=O)(=O)N(CC1CCC1)C[C@@H]1N[C@@H](CO)[C@@H]1c1ccccc1	1	4	-1.0
71	C[C@H](CO)N1C[C@H](C)[C@H](CN(C)C(=O)Nc2ccccc2)Oc2ncc(-c3cccc(F)c3)cc2C1=O	-5	-6	2.8
72	COc1ccc(S(=O)(=O)N(C)C[C@@H]2Oc3ccc(NS(=O)(=O)c4ccc(Cl)cc4)cc3CC(=O)N([C@H](C)CO)C[C@@H]2C)cc1	-2	-3	2.3
73	O=C(N[C@H](C(=O)N1CCC[C@H]1C(=O)NCc1ccccc1)C1CCCCC1)c1ccc(Cl)cc1Cl	-31	-45	-2.6
74	C[C@H]1CCCCO[C@H](CN(C)Cc2ccc(C(F)(F)F)cc2)[C@@H](C)CN([C@@H](C)CO)C(=O)c2cc(NC(=O)Nc3ccc(C(F)(F)F)cc3)ccc2O1	3	4	1.9

Exported screen by screen: part of the list above.
59. C[C@H]1CCCCO[C@@H](CN(C)S(=O)(=O)c2ccc(F)cc2)[C@@H](C)CN([C@@H](C)CO)C(=O)c2cc(NS(=O)(=O)c3ccc(F)cc3)ccc2O1
51. CO[C@H]1CN(C)C(=O)c2ccc(NC(=O)c3ccccc3)cc2OC[C@H](C)N(C(=O)CN(C)C)C[C@@H]1C
assay / entry	59	51
rRNA inh HTS	2	2
rRNA inh HTS OD600	4	-2
rRNA inh HTS RFP	3.6	1.2
